Source: PubChem BioAssay (National Center for Advancing Translational Sciences (NCATS))
gsp antag: qHTS for Antagonists of gsp, the Etiologic Mutation Responsible for Fibrous Dysplasia/McCune-Albright Syndrome: qHTS | 340,000 tested, 0.4% active | Potency, µM (doses to about 76.9 µM), inactives show top-dose activity change, negative = inhibition, most hits filed as inhibitors | gsp-mutant cells, cAMP HTRF, 30 min; control for the full effect not named in the record; active = falling curve of any shape with a large fitted effect; inconclusive = falling curve, mostly with a smaller effect; inactive = flat or rising curve; cell line not stated here;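 further: intracellular cAMP measured with PDE inhibitor Ro 20-1724 present during compound exposure; potency means the concentration at half of the fitted maximal effect; on the % scale 0 is the no-effect control and ±100 the full control effect; nearly all actives have a fitted effect of over 65% in size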
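Measurement of cellular cAMP by homogeneous time-resolved fluorescence following a 30 min compound exposure at 37C. The PDE inhibitor […] was present throughout; the assay buffer was DPBS with 0.05% BSA and 0.005% Tween 20.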
D2 PAM: Beta-Arrestin HTS for Positive Allosteric Modulators of the Human D2 Dopamine Receptor: Potentiators; 360,000 tested, 0.23% active; D(2) dopamine receptor (Homo sapiens), P14416; DiscoveRx D2 beta-arrestin cells, luminescence, 90 min; 100% = 57 uM dopamine signal; potentiation, % (concentration not given with the values); active = potentiation of 50% or more; inconclusive = 30% to 50%; inactive = 30% or less;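 further: compound concentration not given in the record; tested on top of an EC20 dose of dopamine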
Target sequence (P14416 whole entry, looked up): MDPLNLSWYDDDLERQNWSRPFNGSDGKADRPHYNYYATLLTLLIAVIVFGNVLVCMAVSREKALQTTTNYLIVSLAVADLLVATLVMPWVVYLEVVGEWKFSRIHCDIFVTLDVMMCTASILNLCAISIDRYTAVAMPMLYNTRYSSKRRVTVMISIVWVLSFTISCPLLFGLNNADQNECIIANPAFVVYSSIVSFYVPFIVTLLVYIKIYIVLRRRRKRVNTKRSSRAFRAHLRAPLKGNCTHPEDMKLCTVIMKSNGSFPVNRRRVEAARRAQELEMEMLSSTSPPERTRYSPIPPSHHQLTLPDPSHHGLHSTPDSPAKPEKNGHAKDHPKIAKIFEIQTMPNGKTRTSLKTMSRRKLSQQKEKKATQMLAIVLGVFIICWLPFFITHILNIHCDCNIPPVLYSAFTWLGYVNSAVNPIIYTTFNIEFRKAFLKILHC
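PathHunter beta-arrestin assay in DiscoveRx D2 cells. Compounds were added with an EC20 of dopamine (50 nM final) for 90 min at 37 deg C. Luminescence was read 1 h after detection reagent, with 57 uM dopamine as the EC100 control.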
Six1-Eya2 blk: qHTS Assay for Inhibitors of the Six1/Eya2 Interaction; Homeobox protein SIX1 (Homo sapiens) + Protein phosphatase EYA2 (Homo sapiens), …; AlphaScreen GST-Six1/His-Eya2 binding, biochemical; active compounds read low; control for the full effect not named in the record; activity change, % (no concentration beside the values); 360,000 tested, 0.56% active; in the data active = activity change below about -65%; inconclusive = about -30% to -65%; inactive = above about -30%; further: on the % scale 0 is the no-effect control and ±100 the full control effect
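Compounds are tested against tagged Six1 and Eya2 proteins bridged by glutathione donor and nickel acceptor beads; after a one-hour incubation at 37 °C without light, AlphaScreen emission is recorded.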
CtBP-E1A inh: qHTS Assay for Inhibitors of the CtBP/E1A Interaction; AlphaScreen GST-E1A/His-CtBP binding, 1536-well; active compounds read low; control for the full effect not named in the record; activity change, % (no concentration beside the values); CtBP / adenovirus E1A interaction (AlphaScreen); 340,000 tested, 0.49% active; in the data active means activity change below about -65%; inconclusive means about -30% to -65%; inactive means above about -30%; further: on the % scale 0 is the no-effect control and ±100 the full control effect
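Steps: dispense buffer (Tris pH 8.0, NaCl 300 mM, TCEP 1 mM, BSA, Tween 20); add 5X protein mix (GST-E1A, His-CtBP, 125 nM each); pin 23 nL compound; 2 h at 37 °C, dark; add 5X beads (50 ug/mL); 1 h; read.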
D2 agonist: Beta-Arrestin HTS for Positive Allosteric Modulators of the Human D2 Dopamine Receptor: Agonists; D(2) dopamine receptor (Homo sapiens), P14416; DiscoveRx PathHunter D2 beta-arrestin, luminescence, 90 min; 100% = 57 uM dopamine signal; activation, % (no concentration beside the values); 360,000 tested, 0.084% active; AID 624465, 2012; in the data active = activation above about 40%; inconclusive = about 15% to 40%; inactive = below about 15%; further: compound concentration not given in the record; the text of the record calls up to 30% inactive
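Agonist mode: compounds alone added to overnight-plated D2 PathHunter cells for 90 min at 37 C, with 57 uM final dopamine (EC100) defining full response. Beta-arrestin recruitment detected by chemiluminescent reagent, read after 1 h at ambient temperature.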
gsp agonist: qHTS for Agonist of gsp, the Etiologic Mutation Responsible for Fibrous Dysplasia/McCune-Albright Syndrome: qHTS | 340,000 tested, 0.13% active | Potency, µM (top dose mostly 76.9 µM), for inactives: at the top dose activation (cAMP increase), usual class: activators | gsp mutant cells, cAMP HTRF, 30 min; control for the full effect not named in the record; active = well fitted activation curve with a large enough effect; inconclusive = small, poorly fitted or top-dose-only effect, or another doubt; inactive = no such curve, though single readings can be large or run the other way; cell line not stated here;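 further: phosphodiesterase inhibitor Ro 20-1724 added with compounds to block cAMP breakdown; potency means the concentration at half of the fitted maximal effect; nearly all actives have a fitted effect of over 60% in size; about a fifth of the inactives were tested at one dose only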
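Cells in DMEM/10% FBS with G418 were pretreated with compounds in DMSO plus […] (300 uM stock) for 30 min at 37C. cAMP was measured by HTRF (cAMP-d2 plus anti-cAMP antibody-K) after 30 min at room temperature.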
* hit, by the source's call; ? = inconclusive; nt = no result given; [ ] = another dose, or the depositor's remark. This is a random part of the collection; about 1.4% have a hit in one of these screens.

gsp antag	D2 PAM	Six1-Eya2 blk	molecule	CtBP-E1A inh	D2 agonist	gsp agonist
?	-3	-12	c1ccc2sc(C3CCN(Cc4nnnn4Cc4ccc5c(c4)OCO5)CC3)nc2c1	-3	-0.2	-3%
nt	nt	7	N#Cc1ccc(S(=O)(=O)NC[C@H]2O[C@@H](n3ccc(N)nc3=O)[C@H](O)[C@@H]2O)cc1	3	-0.1	38%
5%	-9	1	Cc1nn(CCOc2ccccc2)c(=O)n1-c1ccc(F)cc1	8	-1.5	?
-12%	-4	2	Cc1ccc(S(=O)(=O)NNC(=O)c2c(O)c3ccccc3[nH]c2=O)cc1	10	7.2	-55%[inhibitor]
-7%	2	4	Cc1ccc(/C=C(\C#N)c2nc3ccccc3[nH]2)s1	11	0.4	-23%
21%	-16	5	Cc1cc(C)n(-c2nc(NCCCN(C)C)c3c4c(sc3n2)CCCC4)n1	-3	-2.4	15%[15.4 µM]
5%	-2	5	COc1ccc(-c2oc3ccc(N4CCOCC4)cc3c2C#Cc2ccc(N)cc2)cc1	8	-2.5	nt
9%	4	3	CCOC(=O)C1=C(COC(=O)c2ccc(Cl)nc2)NC(=O)NC1C (configuration not stated)	-3	1.1	-4%[15.4 µM]
-31%	-1	-3	Cc1ccc2cc(CN(c3ccccc3)S(=O)(=O)c3ccccc3)c(=O)[nH]c2c1	5	-2.0	-3%[15.4 µM]
nt	0	-24	O=C(c1ccccc1F)N1CCC2CC1c1cc(N3CCCCC3)ccc12 (configuration not stated)	-25	-9.1	-44%[inhibitor]

The closing two compounds of the section before come first, to join the parts.
gsp antag	D2 PAM	Six1-Eya2 blk	molecule	CtBP-E1A inh	D2 agonist	gsp agonist
-31%	-1	-3	Cc1ccc2cc(CN(c3ccccc3)S(=O)(=O)c3ccccc3)c(=O)[nH]c2c1	5	-2.0	-3%[15.4 µM]
nt	0	-24	O=C(c1ccccc1F)N1CCC2CC1c1cc(N3CCCCC3)ccc12 (configuration not stated)	-25	-9.1	-44%[inhibitor]
?	63*	-4	Cc1ccc(-c2nc3ncccn3c2Nc2ccc3c(c2)OCO3)o1	-8	11	-5%
15%	-3	0	CCN(C(=O)COC(=O)CCn1c(C)csc1=O)c1c(N)n(Cc2ccccc2)c(=O)[nH]c1=O	4	-1.6	-49%[inhibitor]
3%	-5	16	N#CCCn1cc(C(N)=O)c(-c2cccs2)n1	4	0.1	-30%
5%	-17	2	COc1ccccc1-c1noc(CCC(=O)Nc2cc(C(F)(F)F)ccc2Cl)n1	0	-0.2	-39%[inhibitor]
11%	-14	14	O=C(Cc1ccsc1)OCC(=O)c1ccccc1	14	-0.7	-3%[15.4 µM]
6%	1	8	COc1cc(OC)c2ccc(=O)oc2c1C(CC(=O)N1CCOCC1)c1ccc2c(c1)OCO2 (configuration not stated)	2	-0.5	nt
-8%	7	3	O=c1[nH]c(CN2CCc3ccccc3C2)nc2ccccc12	4	-0.3	-8%
-1%	-12	-2	CC1CCN(c2cc(C#N)c(C#N)cc2[N+](=O)[O-])CC1	1	-0.1	-43%[inhibitor]
-13%	-11	2	C=C(C)COc1ccc(C2NC(=O)c3ccccc3O2)cc1OCC (configuration not stated)	4	0.0	11%[15.4 µM]
20%	-5	4	COc1ccc(CN2C(=O)c3cccnc3C2=O)cc1S(=O)(=O)NC(C)C	-3	2.7	22µM*
-9%	-5	10	CCC(C)(C)NC(=O)/C=C/c1cccs1	0	-3.4	-41%[inhibitor]
4%	-4	4	COc1ccc(CNc2nn[nH]n2)cc1OC	18	-1.4	6%
-4%	-13	12	COc1ccc(/C=C(\C#N)C(=O)OCC(=O)NCc2ccccc2Cl)cc1	11	-4.0	20%[15.4 µM]
-4%	-3	0	CCOC(=O)C(C)CC(C)C(=O)N1CCOCCN(C(=O)C(C)CC(C)C(=O)OCC)CCOCC1 (configuration not stated)	7	0.6	-8%
-1%	-16	3	COc1cccc(NC(=O)COC(=O)CCS(=O)(=O)c2ccc(C)cc2)c1	1	1.5	12%[15.4 µM]
-8%	1	5	Cc1cccc2sc(NS(=O)(=O)c3ccccc3)nc12	0	-0.7	0%
3%	4	-1	C=CCOc1cccc(C(=O)Nc2ncn[nH]2)c1	nt	0.8	0%
-2%	8	7	CCc1cccc(C)c1NC(=O)COC(=O)Cn1c(C)csc1=O	-17	-0.8	3%[15.4 µM]
-11%	9	?	COc1cc2c(cc1OC)C1=NC(=O)CN1C(SCc1ccccc1)=N2	?	0.2	-3%
9%	9	2	CN1CCN(CC(=O)NN2CC(=O)N(c3ccc(F)cc3)CC2=O)CC1	nt	-2.6	7%
10%	-10	20	CCn1nc(NC(=O)Cc2ccc(OC)cc2)c2cc3cccc(C)c3nc21	12	-4.1	-14%[15.4 µM]
1%	-2	-1	Nc1ccn([C@@H]2O[C@H](CO)[C@@H](O)[C@H]2O)c(=O)n1	5	3.3	nt
-8%	?	-3	C=CCn1c(SCC(=O)NC23CC4CC(CC(C4)C2)C3)nc(O)cc1=O	6	1.2	?
-3%	-6	11	COc1ccc(OCC(=O)Nc2cc(-c3nn(C)c(=O)c4ccccc34)ccc2N2CCOCC2)cc1	3	-2.6	5%[15.4 µM]
-18%	-12	3	O=C(CNC(=O)/C(=C\c1ccc(F)cc1)NC(=O)c1ccccc1)OCc1ccccc1	-3	-3.5	-2%
-10%	1	0	COC(=O)c1cc(=O)n(Cc2ccco2)c(=Nc2ccc(F)cc2)s1	-6	2.0	14%
3%	-5	1	Cc1ccc(S(=O)(=O)Oc2ccccc2/C=N/O)cc1	nt	-3.7	-49%[inhibitor]
-20%	-1	6	O=C(Nc1cccc(Cl)c1)OCCOc1ccccc1	nt	-0.5	-46%[inhibitor]
5%	-16	-7	COc1ccc(CC(C)N2CCN(c3ccccc3OC)CC2)cc1OC (configuration not stated)	-1	-1.8	-6%
-14%	1	-2	CC(=O)c1ccc(NC(=O)c2cnn3ccccc23)cc1	-7	-3.9	28%
1%	-20	1	COc1ccc(C2(O)CCN(Cc3nnnn3Cc3ccc(F)cc3)CC2)cc1	-5	2.9	-59%[inhibitor]
21%	-2	1	Cc1cccc(Cn2ccc(NC(=O)c3cccnc3)n2)c1	10	-2.8	?
0%	-6	1	CC(C)CC(N)c1cn([C@@H](CCC(=O)O)C(=O)N2CCNCC2)nn1 (some centres not stated)	1	-1.2	nt
-18%	4	-15	CC(Nc1ccc2c(c1)OCCO2)C(=O)N1c2ccccc2CC1C (configuration not stated)	-23	10	-29%[15.4 µM]
3%	-5	-8	CCCOP(=O)(c1ccc(N(C)C)cc1)C(O)c1ccc(Cl)cc1 (configuration not stated)	-3	-4.8	-4%[15.4 µM]
4%	-13	1	COc1ccc(OCC(O)CNCc2ccco2)cc1 (configuration not stated)	2	0.8	10%
nt	-11	3	COc1ccc(OC)c(CN2CCN(C(=O)c3cccc(S(=O)(=O)N(C)c4ccccc4)c3)CC2)c1	-6	2.4	?
-7%	0	4	CCN(c1cc(C)cc(C)c1)S(=O)(=O)c1nnc(NC(=O)C(C)(C)C)s1	2	8.2	6%
3%	-1	7	Cc1cc(C)c2c(=O)[nH]cnc2n1	2	-1.0	?
12%	-1	5	Cc1[nH]c(=O)[nH]c(=O)c1S(=O)(=O)N1CCC(C(=O)N2CCN(c3cccc(C(F)(F)F)c3)CC2)CC1	-5	2.9	24%
5%	-36	3	COc1ccccc1N1CCN(C2CCCN(C(=O)Cn3cccn3)C2)CC1 (configuration not stated)	9	-5.1	-74%[inhibitor]
-5%	-8	-3	COc1cc(CN2CCN(Cc3ccc4cc(F)ccc4n3)CC2CCO)cc(OC)c1 (configuration not stated)	-3	6.4	-35%[inhibitor]
nt	5	1	CCNC(=O)C1(C)CCCN(C(=O)/C=C/c2ccccc2)C1 (configuration not stated)	3	2.5	nt
12%	-11	-1	O=C1CC(c2ccccc2)Sc2ccccc2N1 (configuration not stated)	-6	1.2	-3%
8%	-13	-21	CCNc1nc(NCC)nc(N(C)/N=C/c2ccco2)n1	?	0.7	-35%[inhibitor]
-7%	4	-6	O=C(c1ccc(Cl)cc1[N+](=O)[O-])N1CCc2ccccc2C1	-1	2.2	-10%
11%	-10	?	CCn1nc(C)cc1-c1nnc(Sc2ncc([N+](=O)[O-])s2)n1C	nt	7.6	8%
-5%	0	-2	C=CCSC1=N/C(=C\c2ccc(C)o2)C(=O)S1	-1	-2.4	7%
-6%	-1	2	c1coc(-c2nnc3n2C2(CCCC2)Cc2ccccc2-3)c1	3	-2.9	27%
-2%	-19	-8	O=C(CSc1nnc(CNC(=O)c2ccco2)o1)Nc1cccc(C(F)(F)F)c1	1	5.3	16%

Following part
gsp antag	D2 PAM	Six1-Eya2 blk	molecule	CtBP-E1A inh	D2 agonist	gsp agonist
8%	-17	0	COc1ccccc1C(=O)NCCC(=O)N(C)CC(=O)Nc1ccc(C)cc1	-3	-5.7	-31%[inhibitor]
2%	-8	4	Cc1cc(Oc2ccc(Cl)cc2)nc(-c2ccccn2)n1	2	1.3	10%[15.4 µM]
-14%	?	-4	O=[N+]([O-])c1cccc(C(=Nc2ccccc2Cl)NO)c1	-12	1.7	13%
nt	6	-25	COc1cc2c(cc1[N+](=O)[O-])-c1ccc([N+](=O)[O-])cc1C2=NO	-24	11	29%
-12%	-17	-1	Cc1ccc(NC(=O)C2CCCN(S(=O)(=O)c3c(C)noc3/C=C/N(C)C)C2)c(C)c1 (configuration not stated)	-4	-1.0	9%
